N370S GC mod – N370S glucocerebrosidase modulation, Gaucher chaperone candidate; N370S GC spleen homogenate, 4MU-glucoside fluorescence; Potency, µM (series often up to 59.4 µM), without a hit: at the top dose activity change, negative = inhibition, most hits filed as inhibitors; P04062; 330,000 tested, 0.092% active; AID 2101;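 also: 0% = full enzyme activity and -100% = no enzyme basal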
FEN1 inh – human FEN1 inhibition; 390,000 tested, 0.35% active; Potency, µM (series often up to 114 µM), for inactives: at the highest dose activity change, negative = inhibition, hits mostly inhibitors; Recombinant FEN1 flap cleavage, fluorescence, 15 min; also: nearly all actives have a fitted effect of over 65% in size
Target sequence (P39748 whole entry, looked up): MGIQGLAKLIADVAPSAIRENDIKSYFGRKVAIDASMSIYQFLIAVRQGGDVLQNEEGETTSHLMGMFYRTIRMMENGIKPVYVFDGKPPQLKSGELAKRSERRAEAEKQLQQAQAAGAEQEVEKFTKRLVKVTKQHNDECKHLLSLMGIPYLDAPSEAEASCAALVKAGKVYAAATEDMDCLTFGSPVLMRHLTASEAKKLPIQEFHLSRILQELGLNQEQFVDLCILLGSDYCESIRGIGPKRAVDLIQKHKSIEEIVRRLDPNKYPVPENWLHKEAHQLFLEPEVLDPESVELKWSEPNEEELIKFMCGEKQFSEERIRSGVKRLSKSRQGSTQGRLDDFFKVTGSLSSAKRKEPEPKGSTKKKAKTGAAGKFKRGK
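In this screen, 50 nM flap DNA substrate was added to 10 nM FEN1 pretreated with compound for 15 min at room temperature; cleavage was followed with reads at 0 and 15 min, and Hill fitting gave concentration–response parameters.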
An asterisk follows results filed as active; ? = inconclusive; . = not tested or not shown; & = joins results of further samples; [ ] = dose if it differs, or a comment. Calls follow the shape of the dose curve; as a rule, active = well fitted curve in the direction sought with a large enough effect; inconclusive = small, poorly fitted or top-dose-only effect, or another doubt; inactive = no such curve, though single readings can be large; an effect the other way counts as inactive or inconclusive. Unless noted, % is scaled to controls: 0 for no effect and ±100 for the full control effect; potency is read from the fitted curve at half-maximal effect. The list is partial, and most or all hits are left out here.

Results follow in this order: N370S GC mod | FEN1 inh
Cc1ccc(S(=O)(=O)N[C@H](C(=O)OCC(=O)N2N=C(c3ccc(Cl)cc3)CC2c2ccco2)C(C)C)cc1 (stereo partly drawn)
 : 3% | -17%
Cc1ccc(CNC(=O)C2CCCN(S(=O)(=O)c3cccnc3)C2)cc1 (stereo not drawn)
 : -1% | 6%
CC(=O)c1ccc(OCC(C)C)c(CN2CCCCC2)c1
 : -22% | 1%
Cc1ccc2c(c1)N(CCC(=O)NCCCOC(C)C)C(=O)C(C)O2 (stereo not drawn)
 : 0% | -1%
CC(C)(CNS(=O)(=O)c1ccc2c(c1)OCCO2)N1CCOCC1
 : 1% | -7%
COc1cccc(N2C(=O)CSC23C(=O)N(CC(=O)NCc2ccc(C)cc2)c2ccccc23)c1 (stereo not drawn)
 : . | -12%
Cc1cc(C)cc(NC(=O)OCCN2CCN(Cc3ccccc3)CCC2=O)c1
 : ? | 12%
COc1cc(/C=N/N=C2/NC(=O)C(CC(=O)O)S2)ccc1OCc1cccc(Cl)c1 (stereo not drawn)
 : -3% | -8%
Cc1ccc(NS(=O)(=O)c2ccc(/C=C/C(=O)O)cc2)cc1Cl
 : -3% | -2%
O=c1[nH]c(C2CCCN(S(=O)(=O)c3ccccc3F)C2)nc2c1nnn2Cc1ccccc1Cl (stereo not drawn)
 : -8% | 12%
CCOc1ccccc1Nc1ccc2nonc2c1[N+](=O)[O-]
 : 1% | -10%
Cc1ccc(S(=O)(=O)N(Cc2ccccc2)c2ccccc2C(=O)N2CCCCC2)cc1
 : 26% | 1%
c1ccc(C(c2ccccc2)c2noc(CN3CCC(c4ccncc4)CC3)n2)cc1
 : -6% | 0%
COc1ccc(C(=O)CC(c2ccccc2)C2CCCCC2=O)cc1 (stereo not drawn)
 : 2% | -14%
CC(NC(=O)c1cccc(C(F)(F)F)c1)C(c1ccccc1)N1CCOCC1 (stereo not drawn)
 : 11% | -2%
CCCCOc1ccc(C(C)NC(=O)CCS(=O)(=O)Cc2ccc(Cl)cc2)cc1 (stereo not drawn)
 : -10% | 23%
O=C(CN1C(=O)CNC1=O)Nc1cc(Cl)cc(Cl)c1
 : . | -3%
CC1CC(N(C(=O)c2ccco2)c2ccccc2)c2ccccc2N1 (stereo not drawn)
 : 24% | -6%
Cc1cc(=O)n2nc(N3CCC(C(=O)NCCCOC(C)C)CC3)sc2n1
 : . | 17%
O=C(OCn1nnc2ccccc2c1=O)C1COc2ccccc2O1 (stereo not drawn)
 : -4% | 1%
COc1cc2c(cc1OC)C(C)N(C(=O)c1cc3c(C)cc(C)cc3[nH]1)CC2 (stereo not drawn)
 : -1% | -7%
COc1ccc(-c2cn3nc(N4CCCC(C(=O)Nc5ccccc5OC)C4)sc3n2)cc1 (stereo not drawn)
 : . | 10%
O=[N+]([O-])c1cc(S(=O)(=O)N2CCCCC2)ccc1NCCCN1CCOCC1
 : -4% | 1%
COc1cc(S(=O)(=O)N(Cc2ccccc2)Cc2ccccn2)ccc1-n1cnnn1
 : 8% | -8%
CC(=O)c1ccc(NC(=O)NC2CCCCCCC2)cc1
 : -25% | 11%
CCN1CCN(C(=O)c2ccc(CSc3ccc(C)cc3)cc2)CC1
 : 15% | 1%
CCOC(=O)c1c(NC(=O)CSc2nnc(-c3cccnc3)o2)sc2c1CCC2
 : 8% | -7%
COc1ccc(OC/C(O)=C(\C#N)c2nc3ccccc3[nH]2)cc1
 : -6% | 5%
Cc1c(NC(=O)c2cc3nc(-c4ccccc4)cc(C)n3n2)c(=O)n(-c2ccccc2)n1C
 : -2% | -9%
CCCCNc1c(NC(C)=O)c(=O)oc2ccccc12
 : 2% | 4%

A section from the list above, for reference:
Results follow in this order: N370S GC mod | FEN1 inh
CC1CC(N(C(=O)c2ccco2)c2ccccc2)c2ccccc2N1 (stereo not drawn)
 : 24% | -6%
Cc1cc(=O)n2nc(N3CCC(C(=O)NCCCOC(C)C)CC3)sc2n1
 : . | 17%

Additional structures
Results follow in this order: N370S GC mod | FEN1 inh
CC1CC(C)CN(S(=O)(=O)c2cccc3nsnc23)C1 (stereo not drawn)
 : -3% | 18%
CCc1ccc(NC(=O)C2CCCN(S(=O)(=O)c3cccc4cccnc34)C2)cc1 (stereo not drawn)
 : . | -10%
Cc1cc(C)c2c(=O)[nH]n(C3CCCCCC3)c2n1
 : 2% | -2%
O=C(COC(=O)Cn1cnc2ccccc2c1=O)Nc1ccccc1OC(F)F
 : . | -14%
COCCCNC(=O)CCc1c(C)nc2c(c(C)nn2-c2ccccc2)c1C
 : -4% | -13%
Cc1cc(C)c2c(n1)sc1c(=O)n(-c3ccccc3)c(=O)[nH]c12
 : 9% | 2%
COc1ccc(NC(=O)c2oc3ccc(S(=O)(=O)N4CCCCC4)cc3c2C)cc1Cl
 : . | -5%
CC(C)Oc1ccc(/C(O)=C2/C(=O)C(=O)N(Cc3cccnc3)C2c2ccco2)cc1 (stereo not drawn)
 : -10% | -5%
Cc1ccccc1NC(=O)Cn1c(=O)n(CCCCC(=O)NCc2ccccc2Cl)c(=O)c2ccccc21
 : . | -1%
O=C(NC1CCCCC1)C(c1cccs1)N(C(=O)c1ccccn1)c1ccccc1 (stereo not drawn)
 : 4% | 18%
COC(=O)c1ccc(NC(=O)CC2C(=O)N(c3ccc(C)cc3)C(=O)N2Cc2ccc(OC)cc2)cc1 (stereo not drawn)
 : . | -19%
CCn1c(C)nc2cc(C(=O)N/N=C/c3ccc(O)cc3)ccc21
 : -14% | -1%
COc1ccc(NC(C#N)c2ccccc2OCc2ccccc2)cc1 (stereo not drawn)
 : 6% | 8%
CCCn1c(C(O)c2ccc(OCC)cc2)nc2ccccc21 (stereo not drawn)
 : 1% | 20%
Cc1ccc(C(=O)Nc2ccccc2C(=O)N2CCCCCC2)cc1
 : 23% | -12%
CC(=O)c1ccc(C(=O)Nc2ccc(N3CCOCC3)cc2)cc1
 : -20% | -15%
Cc1occc1C(=O)N1CCN(S(=O)(=O)c2ccccc2)CC1
 : 2% | -1%
CN1CCc2c(OCC(=O)N3CCC(Cc4ccccc4)CC3)cccc2C1=O
 : 0% | 13%
Cc1ccc(N2CCN(S(=O)(=O)N(C)C)CC2)cc1Cl
 : 31% | -2%
Cc1ccc(CCNC(=O)C2CC(c3ccccc3C(F)(F)F)=NO2)cc1 (stereo not drawn)
 : -1% | 0%
CN(C)c1nc(N)nc(CSc2nc3cc(Cl)ccc3o2)n1
 : -23% | 1%
O=C(O/N=C1\CCCc2ccccc21)c1cccs1
 : 6% | -5%
COc1ccc(C(c2nnnn2Cc2ccccc2)N2CCN(c3nc4ccccc4s3)CC2)cc1 (stereo not drawn)
 : -24% | 0%
O=c1ccc(Oc2nc(N3CCCCC3)nc(N3CCCCC3)n2)n[nH]1
 : 3%[2.35 µM] | 4%
COc1ccc(CNC(=O)c2c(N)n(CCCN3CCOCC3)c3nc4ccccc4nc23)cc1
 : 13% | -14%
Cn1ccnc1SCC(=O)c1ccc2ccccc2c1
 : 3% | -1%
CC(C)c1ccc(C(=O)CSc2n[nH]c(-c3ccncc3)n2)cc1
 : -14% | 7%
O=C(NCc1cccc(F)c1)C1CCC(=O)N(C2CCCC2)C1 (stereo not drawn)
 : -4% | -1%
CC(Sc1cccc[n+]1[O-])C(=O)Nc1cccc(S(=O)(=O)N2CCOCC2)c1 (stereo not drawn)
 : -1% | 1%
CCOc1ccccc1N1CCN(C(=O)c2cc3c(s2)CCC3)CC1
 : -23% | -21%

Ordered by count of non-hydrogen atoms (falling): twelve of the compounds above
Results follow in this order: N370S GC mod | FEN1 inh
COc1ccc(C(c2nnnn2Cc2ccccc2)N2CCN(c3nc4ccccc4s3)CC2)cc1 (stereo not drawn)
 : -24% | 0%
COc1ccc(CNC(=O)c2c(N)n(CCCN3CCOCC3)c3nc4ccccc4nc23)cc1
 : 13% | -14%
CN1CCc2c(OCC(=O)N3CCC(Cc4ccccc4)CC3)cccc2C1=O
 : 0% | 13%
CC(Sc1cccc[n+]1[O-])C(=O)Nc1cccc(S(=O)(=O)N2CCOCC2)c1 (stereo not drawn)
 : -1% | 1%
Cc1ccc(CCNC(=O)C2CC(c3ccccc3C(F)(F)F)=NO2)cc1 (stereo not drawn)
 : -1% | 0%
O=c1ccc(Oc2nc(N3CCCCC3)nc(N3CCCCC3)n2)n[nH]1
 : 3%[2.35 µM] | 4%
Cc1ccc(C(=O)Nc2ccccc2C(=O)N2CCCCCC2)cc1
 : 23% | -12%
CC(C)c1ccc(C(=O)CSc2n[nH]c(-c3ccncc3)n2)cc1
 : -14% | 7%
O=C(NCc1cccc(F)c1)C1CCC(=O)N(C2CCCC2)C1 (stereo not drawn)
 : -4% | -1%
CN(C)c1nc(N)nc(CSc2nc3cc(Cl)ccc3o2)n1
 : -23% | 1%
Cc1ccc(N2CCN(S(=O)(=O)N(C)C)CC2)cc1Cl
 : 31% | -2%
O=C(O/N=C1\CCCc2ccccc21)c1cccs1
 : 6% | -5%

Further structures follow.
Results follow in this order: N370S GC mod | FEN1 inh
CC(=O)NNc1cccc(Cl)n1
 : 12% | 3%
O=C(c1ccccc1)N(Cc1nc2ccccc2c(=O)[nH]1)C1CCCC1
 : ? | 7%
Cc1cc(=O)oc2cc(OCC(=O)OC(C)C(=O)NC3CCCC3)ccc12 (stereo not drawn)
 : 10% | 0%
CN(C)S(=O)(=O)Oc1ccsc1C(=O)Nc1ccc(Br)cc1
 : 24% | -8%
COc1ccc(OC)c(NC(=O)CCCc2ccccc2)c1
 : -7% | -8%
C=CCc1cccc(/C=N/NC(=O)c2ccccc2OC)c1O
 : 10% | -1%
Cc1ccc(NC(=O)CSc2nnc(-c3ccc(S(=O)(=O)N4CCCC4)cc3)o2)cc1C
 : -1% | -9%
Cc1cc(C(=O)CC#N)c(C)n1CC(F)(F)F
 : -18% | -7%
O=C(COC(=O)/C=C/c1ccc(C(F)(F)F)cc1)NCC1CCCO1 (stereo not drawn)
 : 2% | -9%
CCCOC(=O)Nc1c(C)cccc1C(C)C
 : 5% | 0%
CCCn1c(SCC(=O)NCCc2ccccc2)nnc1-c1ccccn1
 : 3% | -10%
O=C(NCC(c1cccs1)N1CCOCC1)c1ccccc1NS(=O)(=O)c1ccc(Cl)cc1 (stereo not drawn)
 : -27% | 5%
COc1ccc(CCNC(=O)COC(=O)Cc2cccc(F)c2)cc1
 : -3% | 8%
O=c1[nH]oc2cc(Cl)ccc12
 : 3% | 8%
CCOP(=O)(c1c(F)c(F)c(F)c(F)c1F)C(O)c1ccccc1 (stereo not drawn)
 : 8% | 10%
CCOC(=O)c1cc2c(=O)n3ccccc3nc2n(CC(C)C)c1=NC(=O)c1cc2ccccc2o1
 : . | -2%
Cc1ccc(-n2nnnc2SCC(=O)N2c3ccccc3NC(=O)C2(C)C)cc1
 : 6%[2.35 µM] | -14%
CC(=O)Oc1ccc(N2C(=O)CCC2=O)cc1
 : 2% | -2%
COC(=O)c1ccc2c(=O)n(CCCN3CCCC3=O)c(=S)[nH]c2c1
 : 1% | 6%
Cn1c(SCc2nc3ccccc3[nH]2)nnc1-c1cccnc1
 : 2% | 6%
O=C(CN1CCN(c2ccccn2)CC1)Nc1ccc2ccccc2c1
 : -13% | -13%
CCCCCCn1ccc(=N)cc1
 : 3% | 5%
CCOC(=O)C1CCN(C(=O)Cn2ncc3c([nH]c4ccccc43)c2=O)CC1
 : -17% | 0%&-3%
CN1CCC(=O)N([C@H](CSc2ccc(Br)cc2)Cc2ccccc2)CC1
 : -14% | 0%
CC(C)(C)NCC(O)COc1ccc(Br)cc1 (stereo not drawn)
 : 4% | 24%
COc1ccccc1NC(=O)CNC(c1ccccc1)c1ccccc1
 : -2% | 0%
COc1cc(/C=C2\SC(=S)N(NS(=O)(=O)c3ccccc3)C2=O)ccc1O
 : 10% | -22%
N#CCCN(C(=O)COc1ccc(Cl)cc1Cl)c1ccccc1
 : ? | -1%
CN(c1ccccc1)S(=O)(=O)c1cccc(C(=O)NCc2ccccc2)c1
 : . | -19%
COc1ccc(CC(=O)NCc2nn(-c3ccccc3)nc2C)cc1OC
 : 1% | 14%
O=C(CSc1ncnc2c1nnn2-c1ccc(F)cc1)NCc1ccco1
 : 2% | 6%
CCCS(=O)(=O)N1CCC(C(=O)NCCCOC(C)C)CC1
 : 28% | 1%
COc1ccc(NC(=O)COc2nc(N(C)C)nc(N(C)C)n2)cc1
 : 1% | 2%
O=C(NC1CC1)c1ccc(COc2ccc(F)cc2)o1
 : 13% | 5%
CC(C)c1ccc(OCC(=O)NC2=NCCS2)cc1
 : 6% | 3%
Cc1sc2ncnc(NCC3CCCO3)c2c1C (stereo not drawn)
 : 6% | -3%
CCCCCn1c(CCNC(=O)CCC)nc2ccccc21
 : -1% | 0%
Cc1nc2c(-c3ccccc3)c(C)nn2c(C)c1CCC(=O)NCc1ccco1
 : -1% | -1%
CCOc1ccc(C2CC(c3cccc(OC)c3)Nc3nc(N)nn32)cc1 (stereo not drawn)
 : -3% | -25%
CCN(CC(=O)NCc1cccs1)C(=O)c1ccc([N+](=O)[O-])o1
 : -7% | 8%
CCCCNC(=O)Cc1ccc(C)cc1
 : 7% | -6%
COc1ccc(OC)c(NC(=O)CSc2sc3c(O)cc(=O)[nH]c3c2C#N)c1
 : -5% | 79µM*
Fc1ccccc1N=C1NN=C(c2ccccc2)CS1
 : 12% | -9%
CCOC(=O)C1=C(COC(=O)c2ccccc2OC)NC(=O)NC1C (stereo not drawn)
 : -1% | -3%
CCOC(=O)c1c(C)[nH]c(C(=O)OCC(=O)NC2CCS(=O)(=O)C2)c1C (stereo not drawn)
 : -2% | 4%
Cc1ccc(NC(=O)CNC(=O)c2cccs2)c(O)c1
 : 4% | 0%
